Source: PubChem
Sfp inh: Sfp phosphopantetheinyl transferase inhibition; actives 3.5% (n = 310,000); Potency, µM, without a hit: max response, negative = inhibition, usual class: inhibitors; AID 1490; Biochemical Sfp PPTase activity, qHTS; active = well fitted inhibition curve with a large enough effect; inconclusive = small, poorly fitted or top-dose-only effect, or another doubt; inactive = no such curve, though single readings can be large or run the other way;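 also: the enzyme is Sfp with the accession as filed and its product quenches rhodamine fluorescence; potency is read from the fitted curve at half-maximal effect; 0% = enzyme reaction without inhibitor and -100% = no enzyme wells; top concentration of the series not given in the record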
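Fluorescence-quenching assay with 15 nM Sfp, 5 uM rhodamine-CoA and 12.5 uM BHQ-2-labelled ybbR peptide in pH 7.6 Hepes/MgCl2 buffer. Enzyme was pre-incubated with compound for 15 min at room temperature. Rate was taken from the 30-min fluorescence change (525/598 nm).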
gsp antagonist: gsp mutant antagonism; gsp-mutant cells, cAMP HTRF, 30 min; control for the full effect not named in the record; Potency, µM (highest dose often 76.9 µM), for the others: at the top dose activity change, negative = inhibition, most hits filed as inhibitors; actives 0.4% (n = 340,000); AID 624288; active = falling curve of any shape with a large fitted effect; inconclusive = falling curve, mostly with a smaller effect; inactive = flat or rising curve; cell line not stated here;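 also: intracellular cAMP measured with PDE inhibitor Ro 20-1724 present during compound exposure; potency is read from the fitted curve at half-maximal effect; % is scaled to controls: 0 for no effect and ±100 for the full control effect; nearly all actives have a fitted effect of over 65% in size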
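G418-selected cells were plated in DMEM/10% FBS for 16-24 h at 37C, then treated with compounds plus the PDE inhibitor […] (300 uM solution added) for 30 min at 37C. Intracellular cAMP was measured by HTRF after 30 min lysis at room temperature.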
TRPV1 PAM: human TRPV1 potentiation; TRPV1-expressing cells, Fluo-8 calcium influx, capsaicin EC20 potentiation; host cell line not named in the record; control for the full effect not named in the record; Q8NER1; potentiation, % at 8.33 µM; actives 0.02% (n = 320,000); active means potentiation above 80%; inconclusive means 30% to 80%; inactive means below 30%; also: 0% is about no effect
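Cells expressing TRPV1 were dye-loaded with Fluo-8 and read kinetically: 10 s baseline, 3 min after compound (agonist portion), then 2 min after EC20 capsaicin (allosteric enhancer portion). Calcium-bound dye fluorescence at 480/520 nm.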
gsp agonist: agonists of gsp mutant (McCune-Albright syndrome) | gsp mutant cells, cAMP HTRF, 30 min; control for the full effect not named in the record | Potency, µM (doses to about 76.9 µM), without a hit: at the top dose activation (cAMP increase), usual class: activators | actives 0.13% (n = 340,000) | AID 624287; active = well fitted activation curve with a large enough effect; inconclusive = small, poorly fitted or top-dose-only effect, or another doubt; inactive = no such curve, though single readings can be large or run the other way; cell line not stated here;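 also: phosphodiesterase inhibitor Ro 20-1724 added with compounds to block cAMP breakdown; potency is read from the fitted curve at half-maximal effect; nearly all actives have a fitted effect of over 60% in size; about a fifth of the inactives were tested at one dose only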
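Cells in DMEM/10% FBS with G418 were pretreated with compounds in DMSO plus […] (300 uM stock) for 30 min at 37C. cAMP was measured by HTRF (cAMP-d2 plus anti-cAMP antibody-K) after 30 min at room temperature.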
TRPML1 inh: human mucolipin-1 channel inhibition; actives 0.02% (n = 390,000); TRPML1-inducible cells, Ca2+ dye fluorescence, FDSS; hits give low values; inhibition of EC80 agonist-evoked calcium signal; activity change, negative = inhibition, % (test concentration not listed); in the data active means activity change below about -50%; inconclusive means about -30% to -50%; inactive means above about -30%;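 also: stimulus is agonist 54-4 at its EC80 concentration; % is scaled to controls: 0 for no effect and ±100 for the full control effect; compound concentration not given in the record; the text of the record puts the active cut at -80%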
Target sequence (Q9GZU1 whole entry, looked up): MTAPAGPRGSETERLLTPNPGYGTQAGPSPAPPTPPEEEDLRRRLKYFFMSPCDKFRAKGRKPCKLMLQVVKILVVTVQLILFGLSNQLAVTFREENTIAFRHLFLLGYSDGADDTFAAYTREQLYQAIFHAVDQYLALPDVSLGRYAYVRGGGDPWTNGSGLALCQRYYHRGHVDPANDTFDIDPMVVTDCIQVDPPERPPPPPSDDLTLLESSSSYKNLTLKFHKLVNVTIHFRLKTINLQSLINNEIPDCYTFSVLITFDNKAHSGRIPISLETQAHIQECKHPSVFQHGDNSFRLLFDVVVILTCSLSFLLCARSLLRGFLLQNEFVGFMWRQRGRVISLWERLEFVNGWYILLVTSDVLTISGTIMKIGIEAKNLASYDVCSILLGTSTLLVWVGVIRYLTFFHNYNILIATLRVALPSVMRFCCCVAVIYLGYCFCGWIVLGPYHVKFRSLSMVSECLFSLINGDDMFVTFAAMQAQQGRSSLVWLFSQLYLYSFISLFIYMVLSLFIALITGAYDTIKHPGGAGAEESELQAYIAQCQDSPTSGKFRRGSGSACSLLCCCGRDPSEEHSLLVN
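Calcium fluorescence in TRPML1-DL cells induced overnight with Tet: a 110 s read after compound pin addition, then a 110 s antagonist read after challenge with 54-4 at 4 uM final (EC80).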
Menin-MLL FL inh: inhibitors of human menin-MLL interaction, wild-type MLL peptide; Fluorescence polarization, fluorescein-MLL peptide displacement from menin; FP activity change, % at 61.4 µM; 290,000 tested, under 10 active; inconclusive = falling polarisation curve, or a change in total fluorescence; inactive = total fluorescence flat and polarisation flat or rising; no compound was filed as active; the % refers to the polarisation; negative = inhibition;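 also: % of control where 0% means no effect; inhibitors lower the polarisation; unlabelled MLL peptide was the positive control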
ClpP mod: qHTS Assay for Activators of ClpP | purified B. subtilis ClpP, FRET peptide cleavage, 20 min | Potency, µM (series often up to 57.5 µM), for the others: top-dose activity change, negative = active | actives 1.9% (n = 340,000); active = well fitted falling curve with a large enough effect; inconclusive = small, poorly fitted or top-dose-only effect; inactive = no such curve, though single readings can be large or run the other way; also: potency is read from the fitted curve at half-maximal effect; the source files actives as falling curves though it sought activators and does not explain the sign; nearly all actives have a fitted effect of over 65% in size; many hits overshoot -100%
Target sequence (P80244 whole entry, looked up): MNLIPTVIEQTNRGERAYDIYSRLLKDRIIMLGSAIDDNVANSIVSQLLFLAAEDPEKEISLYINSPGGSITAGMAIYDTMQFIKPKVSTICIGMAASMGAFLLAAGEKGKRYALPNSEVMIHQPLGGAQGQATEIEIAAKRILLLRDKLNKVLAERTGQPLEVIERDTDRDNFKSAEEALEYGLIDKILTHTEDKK
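FRET quenching reversal measured ClpP activation: 10 microg/mL B. subtilis ClpP at pH 8 with the FRET-FV decapeptide, read at 430 nm after 320 nm excitation. The 20-min minus 0-min signal was scaled between DMSO/no-enzyme wells and ADEP (5.8 microM final).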
* = called active by the depositor; u = inconclusive; x = not tested or not shown; & = joins results of further samples; [ ] = another dose, or the depositor's remark.

structure	TRPML1 inh	ClpP mod	Sfp inh	gsp antagonist	gsp agonist	Menin-MLL FL inh	TRPV1 PAM
COC(=O)C(O)(CC(=O)c1ccc(OC)cc1)C(F)(F)F (configuration not stated)	13	-1.7%	7%	6%	8%	2.0	8
CCn1nc(NC(=O)CC(C)C)c2cc3cccc(C)c3nc21	15	x	9%	-7%	-13%[15.4 µM]	-0.6	-10
CC1CCN(S(=O)(=O)c2ccc(NC(=O)Cn3nnc(-c4ccccc4F)n3)cc2)CC1	-1	-1.0%	8%	4%	2%	-1.8	-5
COc1ccc(CCNC(=O)CSc2ccc(NC(C)=O)cc2)cc1OC	12	x	7%	1%	7%	4.3	15
COc1cccc(NC(=S)N2CCN(c3ccc([N+](=O)[O-])cc3)CC2)c1	2	x	29%	-7%	-4%[15.4 µM]	4.8	4
COCc1ccc(CN2CCCC(C(=O)Nc3ccc(-c4cscn4)cc3)C2)o1 (configuration not stated)	9	-0.1%	4%	4%	4%	-0.3	8
CCC(=O)Nc1nc(OC)cc(OC)n1	-12	-1.5%	11%	7%	0%	1.1	7
Cc1ccccc1CCN(CC(=O)NC1CCCCC1)C(=O)c1csnn1	36	-0.2%	20%	2%	-9%[15.4 µM]	2.8	3
O=C(NCC(c1ccco1)N1CCOCC1)c1ccccc1 (configuration not stated)	11	1.1%	x	7%	-9%[15.4 µM]	x	-8
O=C(Nc1nnc(C2CC2)s1)c1cc([N+](=O)[O-])ccc1N1CCCCC1	19	0.7%	-7%	u	-20%	7.4	4
CCN(CC)CCNc1ccnc2cc(Cl)ccc12	-16	32µM*	-3%	6%	u	1.8	3
CCCCn1c(SCC(=O)N(C)C2CCS(=O)(=O)C2)nc2cc(S(N)(=O)=O)ccc21 (configuration not stated)	8	-0.3%	3%	2%	-28%	-1.5	-9
CC(C)C(=O)Nc1ccc(C(=O)Nc2nnc(C(C)C)s2)cc1	-13	-2.0%	20%	-4%	-46%[inhibitor]	-1.7	11
CC(C)(C)c1ccc(Oc2ccc(N)cc2)cc1	-2	0.1%	u	3%	-14%	3.6	-3
COc1ccc(C(=O)OCc2nc(N)nc(Nc3ccccc3C)n2)cc1OC	-11	x	-4%	7%	u	7.2	11
O=C(CN1C(=O)NC2(CCCc3ccccc32)C1=O)N1CCc2ccccc2C1 (configuration not stated)	1	-1.8%	6%	8%	36%	8.3	2
CCn1c(=S)sc2c(=O)n(-c3ccccc3)c(=S)[nH]c21	-13	x	-26%	-5%	5%	-1.1	3
CCOc1ccccc1CNC(=O)Cn1ccc2cc(S(=O)(=O)N3CCCCCC3)ccc21	-1	-6.2%	10%	-23%	-23%	4.1	29
CCCCNC(=S)Nc1ccc(F)cc1	24	-19%	11%	2%	15%[15.4 µM]	-1.5	-9
Nc1ccc2nc(-c3cccc(-c4nc5ccc(N)cc5[nH]4)n3)[nH]c2c1	7	1.1%	32µM*	2%	42%	u	-9
CN(CC(=O)Nc1ccc(OC(F)(F)F)cc1)C(=O)C1CCC1	4	-0.3%	x	13%	28%	x	-6
Cc1ccc(NCc2n[nH]c(=S)n2-c2ccccc2)cc1	9	x	u	1%	0%	0.3	2
O=C(NCc1ccccc1)N1CCOc2ccccc21	17	-2.1%	-8%	7%	2%	-9.8	12
Cc1ccc(Oc2ccc(NS(=O)(=O)c3cccc(C(=O)O)c3)cc2)cc1	1	x	x	1%	17%	x	x
NS(=O)(=O)c1ccc(NC(=O)/C=C/c2ccc(S(=O)(=O)NCc3ccco3)cc2)cc1	-3	-4.8%	5%	-6%	-2%[15.4 µM]	-1.5	4
CCCC[C@@H](CN[C@H](C)CNC)NCC1CCC(C(C)(C)C)CC1 (some centres not stated)	-11	0.7%	21%	15%	x	6.7	-7
CC1Cc2ccccc2N1C(=O)CSc1ncccc1C(=O)O (configuration not stated)	-2	0.3%	4%	7%	-56%[inhibitor]	2.3	7
COc1ccc(CNC(=S)Nc2ccccc2)cc1Cl	x	-1.9%	6%	0%	4%	-1.0	-5
CCc1ccc2[nH]c(C(=O)Nc3ccc(Br)c(C)n3)cc2c1	53	-18%	2%	13%	7%	7.7	1
O=C(Nc1ccccc1)NC1(C(=O)NCCCN2CCOCC2)CCCCC1	-7	0.8%	15%	15%	-20%	1.6	3
CCN(CC)S(=O)(=O)c1ccc(-n2cnnn2)c(C)c1	7	0.5%	13%	1%	u	-0.9	-20
O=C1CC(Nc2ccc(N3CCOCC3)cc2)C(=O)N1c1ccccc1 (configuration not stated)	-8	-1.9%	u	-5%	3%	8.7	6
Cc1nc2ccccn2c1C(=O)Nc1ccc2c(c1)OCCO2	0	u	14%	4%	-16%	2.1	-8
COc1ccc(NC(=O)CCCC(=O)c2ccccc2)c(OC)c1	-16	2.0%	3%	-5%	-20%	-0.5	-16
CC(=O)Nc1ccc(S(=O)(=O)N2CCN(S(=O)(=O)N3CCCCC3)CC2)cc1	8	x	10%	10%	-60%[inhibitor]	-0.2	-6
COc1ccc(C2=NN(C3=NN=C(N)Cc4ncnn43)C(O)(C(F)(F)F)C2)cc1 (configuration not stated)	6	3.8%	-2%	-5%	-72%[inhibitor]	-2.2	-2
O=C(O)c1ccccc1C(=O)N(Cc1ccccc1)Cc1ccccc1	19	-1.7%	10%	-7%	-7%	-1.6	u
CCOC(=O)CCn1nc(-c2ccc(C)cc2)c2ccccc2c1=O	8&34	-10%	-11%	-24%	7%[15.4 µM]	0.6	-10
O=S(=O)(NC1CC2CCC1C2)c1ccc(Br)cc1 (configuration not stated)	-4	1.4%	16%	-8%	0%[15.4 µM]	0.3	-2
CC(C)OCCCNC(=O)c1cccc(NC(=O)c2ccccc2)c1	2	-1.5%	-8%	-18%	-1%	1.6	5
CCOC(=O)c1c(C(F)(F)C(F)(F)C(F)(F)C(F)(F)F)n[nH]c1C	1	1.3%	22%	-21%	-10%	5.7	16
Cc1ccc(C)c(N2CCN(C(=O)C3CCCN(S(=O)(=O)c4c(C)[nH]c(=O)[nH]c4=O)C3)CC2)c1 (configuration not stated)	27	-3.4%	28%	-1%	u	0.4	4
C=CCSc1nc(-c2ccc(OC)cc2)c(C#N)c(=O)n1CC=C	-6	x	-8%	u	1%[15.4 µM]	5.2	3
COc1ccc(N(CC(=O)N/N=C/c2cccc(OC)c2OC)S(=O)(=O)c2ccccc2)cc1	-6	3.3%	-4%	-32%	16%	-1.8	-13
N#CC1=C(N)N=C(SCc2ccccc2)C(C(N)=O)C12CCCCC2 (configuration not stated)	24	0.0%	-29%	-24%	13%	2.6	1
COc1ccc(NS(=O)(=O)c2cc(NC(=O)c3nc4nc(C)cc(C)n4n3)ccc2C)cc1	-12	x	10%	-11%	11%[15.4 µM]	0.0	10
COc1ccc(C(=O)N/C(=C\c2ccc(Cl)cc2)C(=O)NCCN2CCOCC2)cc1	-8	-0.4%	x	x	u	x	x
CCC(=O)NC(=S)Nc1ccccc1F	48	13µM*	11%	4%	-3%	2.7	-2
Cc1ccccc1CN1N=C(/C=C/c2ccccc2)CCC1=O	17	x	-27%	x	-6%[15.4 µM]	-6.1	-3
COC(=O)CSc1nc2ccc(NC(=O)c3ccccc3C(=O)N3CCOCC3)cc2s1	5	-3.5%	-7%	-28%	-61%[inhibitor]	5.5	4
COc1ncnc2c1NC1=C(S2)C(=NCCC(=O)O)CC(C)(C)C1	6	u	14µM*	-22%	u	u	-15
CC(C)CCNC(=O)C1CCN(S(=O)(=O)c2ccc3c(c2)CC(C)N3C(=O)C2CC2)CC1 (configuration not stated)	-4	2.6%	14%	-2%	15%	-2.1	0
COc1ccc(NC(=O)NCc2ccco2)cc1OC	13	-0.8%	9%	4%	14%	-1.2	-1
c1ccc(CSc2nnc(-c3cccs3)n2Cc2ccco2)cc1	-11	-7.3%	0%	-26%	-5%	2.7	1
CCCc1cc(C(=O)NNC(=S)NCC)c2ccccc2n1	4	-12%	0%	1%	-6%	5.6	5
O=C(c1ccsc1)N1CCCC(N2CCN(c3cccc(Cl)c3)CC2)C1 (configuration not stated)	18	0.4%	10%	6%	26%	x	11
Cc1cc(OCC(=O)Nc2ccc(CN3CCOCC3)cc2)c2c(C)cc(=O)oc2c1	8	4.3%	0%	4%	1%	x	-7
CC(C)(C)NC(=O)NC(=O)COC(=O)Cn1c(C(F)(F)F)nc2ccccc21	0	-2.2%	7%	-25%	-38%[inhibitor]	-0.9	u
CCC(C)c1ccc(NC(=O)COc2c(F)c(F)c(C(F)(F)F)c(F)c2F)cc1 (configuration not stated)	28	2.6%	18%	-30%	-33%[inhibitor]	1.2	-16
NC(=S)Nc1ccc2cc[nH]c2c1	-10	x	2%	-5%	-4%[15.4 µM]	-0.4	15
COC(=O)c1cc(S(=O)(=O)N2CCN(c3ccc(C(C)=O)cc3)CC2)c[nH]1	18	-18%	20%	-3%	15%	x	-12
Cc1cc(Br)cc2c1NC(=O)C2(c1c(C)n(C)n(-c2ccccc2)c1=O)c1c(C)n(C)n(-c2ccccc2)c1=O	8	1.3%	14%	10%	16%	5.3	-13

The order is random; overall some 4.9% were active at least once.
